Assay outcomes: PubChem, ICCB-Longwood Screening Facility, Harvard Medical School
Ab BasE inh = BasE siderophore biosynthesis inhibition. AID 485350. actives 0.1% (n = 84,000). inhibition, % (test concentration not listed). purified BasE, fluorescence polarization binding displacement;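 active = both replicates above 25% with normal brightness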;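 note: 0% = negative plate control signal and 100% = positive plate control signal; stock transfer was 100 nL into about 30 µL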
LANA-nucl inh = LANA-nucleosome interaction inhibition | FITC-LANA1-23 / chicken nucleosome fluorescence polarization; active compounds read low | z-score (no concentration beside the values) | actives 0.3% (n = 51,000) | AID 720717;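 active = both repeat wells score below -2 in polarization z-score versus plate sample wells, excluding overly bright wells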;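 note: 100 nL library stock added to about 30 µL; numbers are from one replicate; some results filed as inactive read as strong as hits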
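Material: Purified chicken nucleosomes with FITC-labelled LANA N-terminal peptide (1-23) | Reagent: 50 nM FITC-LANA1-23 probe | Medium: TEN-BT buffer, pH 7.5 | Times: 10–45 min incubation at room temperature | Detection: Fluorescence polarization | Replication: Duplicates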
Starred values were filed as active, the others as inactive. This is a subset (hit frequency here may not be typical).

How did Cc1cc(C(=O)CN2C(=O)C3CC=CCC3C2=O)c(C)n1-c1ccccc1 (stereo not given) do in these assays?
Ab BasE inh: -4.7

Results for FC(F)(F)c1cc(-c2cccs2)nc2c1cnn2C1CCCCC1 ?
Ab BasE inh: 1.5

How did CCN1CCCC1CNCC(=O)Nc1ccc(C)c(Br)c1 (stereo not given) do in these assays?
Ab BasE inh: -1.3; LANA-nucl inh: 0.41

Results for Cc1c2c(nc3nc4ccccc4n13)CC(C)(C)CC2=O ?
Ab BasE inh: -0.2; LANA-nucl inh: 1.2

How did CSc1nnc(C2CCCN(C(=O)Nc3ccc(Cl)c(C(F)(F)F)c3)C2)n1C (stereo not given) do in these assays?
Ab BasE inh: -1.2; LANA-nucl inh: -0.29

Results for O=C(NCc1cccs1)C1CCCCC1 ?
Ab BasE inh: 0.6

Results for COC(=O)C(Cc1c[nH]c2ccccc12)NC(=O)c1ccc(OC)cc1 (stereo not given) ?
Ab BasE inh: -2.0

What do the screens show for `O=C(Cc1ccc(F)cc1)NC1CCSC1=O` (stereo not given)?
Ab BasE inh: -1.5; LANA-nucl inh: -0.24

Results for CCC1CCCCN1S(=O)(=O)c1ccc(NC(=O)COc2ccc(OC)cc2)cc1 (stereo not given) ?
Ab BasE inh: 0.4

Results for O=C(NCc1ccccn1)c1ccc(NC2=NC3CS(=O)(=O)CC3S2)cc1 (stereo not given) ?
Ab BasE inh: 24; LANA-nucl inh: 0.23

Results for Cc1cc(=O)oc2cc(OCC(=O)NCc3ccco3)ccc12 ?
Ab BasE inh: -1.5; LANA-nucl inh: -1.2

How did Cc1cc(C)c(NC(=O)C(C)OC(=O)C2CCCCC2)c(C)c1 (stereo not given) do in these assays?
Ab BasE inh: 2.7

What do the screens show for `CC1CN(C(=O)CSc2nnc(-c3cccs3)n2N)CC(C)O1` (stereo not given)?
Ab BasE inh: 1.9

How did CCNc1nc(NCC)nc(OCC#N)n1 do in these assays?
Ab BasE inh: -1.3; LANA-nucl inh: -0.26

What do the screens show for `CCC(C)(C)n1nnnc1CN(Cc1ccc(Cl)cc1)CC1CCCO1` (stereo not given)?
Ab BasE inh: -0.5; LANA-nucl inh: -0.35

What do the screens show for `O=C(OCc1nc2ccccc2s1)C12CC3CC(CC(O)(C3)C1)C2`?
Ab BasE inh: -1.3

Results for O=C(Nc1ccccc1)Nc1ccc2c(c1)C(=O)OC2 ?
Ab BasE inh: 1.5; LANA-nucl inh: -0.047

How did Fc1ccccc1CNC1CCCC1 do in these assays?
Ab BasE inh: 0.8; LANA-nucl inh: 0.36

How did Cc1ccc(C)n1-c1ccc(C(=O)N(C)CCCc2[nH]nc(N)c2C#N)cc1 do in these assays?
Ab BasE inh: 1.2

Results for COCCN1C(=O)CS/C1=C(/C#N)C(=O)NCCc1ccccc1 ?
Ab BasE inh: -1.0

Results for COc1ccc(-c2nnc(SC(C)c3nc4ccccc4c(=O)[nH]3)n2CC2CCCO2)cc1 (stereo not given) ?
Ab BasE inh: 2.6

Results for O=c1c2ccccc2nnn1CSc1nc2cc(Cl)ccc2s1 ?
Ab BasE inh: 0.9

How did CC1(C)CC(NC(=S)Nc2ccc(S(N)(=O)=O)cc2)CC(C)(C)N1 do in these assays?
Ab BasE inh: -6.0

What do the screens show for `Cc1cc(C(=O)COc2ccc3oc4c(c3c2)CCCC4)c(C)n1Cc1cccs1`?
Ab BasE inh: 3.2

How did O=C(CSc1nnc(-c2cccs2)o1)Nc1ccc2c(c1)OC1(CCCCC1)O2 do in these assays?
Ab BasE inh: 2.0

What do the screens show for `CS(=O)(=O)N1CCC(c2nc3ccccc3[nH]2)CC1`?
Ab BasE inh: -1.4; LANA-nucl inh: 2.9

What do the screens show for `COC(=O)c1sc(N)c(C(=O)OC)c1CSc1nnc(C(F)(F)F)n1C`?
Ab BasE inh: 0.7

Results for Cc1ccc(NC(=O)CN(C)Cc2cc(=O)n3ccsc3n2)cc1 ?
Ab BasE inh: 0.2

How did CCN(CC)S(=O)(=O)c1ccc(C(=O)N2N=C3/C(=C/c4cccs4)CCCC3C2c2cccs2)cc1 (stereo not given) do in these assays?
Ab BasE inh: -4.5

Results for CCc1ccc(NC(=O)C(C)Sc2ccc(S(=O)(=O)N3CCN(C)CC3)cn2)cc1 (stereo not given) ?
Ab BasE inh: 16

How did CCc1ccc(NC(=O)Cn2nc(CC)n3c(cc4sccc43)c2=O)cc1 do in these assays?
Ab BasE inh: -1.6; LANA-nucl inh: 0.067

Results for CC1Cc2ccccc2N1C(=O)Cn1c(-c2cccnc2)ccc(C#N)c1=O (stereo not given) ?
Ab BasE inh: -0.3; LANA-nucl inh: 0.33

Results for O=C(Nc1ccc2nn(-c3ccccc3)nc2c1)C(c1ccccc1)c1ccccc1 ?
Ab BasE inh: -3.7

What do the screens show for `CCN(CC)C(=O)CSc1nnc(COc2ccc(C)cc2)n1N`?
Ab BasE inh: -1.7; LANA-nucl inh: -0.81

What do the screens show for `O=C(NCCCc1ccccc1)C1CCCN1c1nnc(N2CCCC2=O)s1` (stereo not given)?
Ab BasE inh: 2.3; LANA-nucl inh: 0.34

What do the screens show for `CCc1ccc(N=C2N=C(N)c3ccccc32)cc1`?
Ab BasE inh: 0.2

What do the screens show for `COc1ccc2c(CSc3nnc(Nc4ccccc4OC)s3)cc(=O)oc2c1`?
Ab BasE inh: -0.5

How did NC(=O)c1cc(S(=O)(=O)N2CCCC2)ccc1OCc1ccc(F)cc1 do in these assays?
Ab BasE inh: 0.4

What do the screens show for `Nc1n[nH]c2c1CSc1ccc(Cl)cc1-2`?
Ab BasE inh: 0.8; LANA-nucl inh: 0.72

Results for N#CCSc1nc(-c2ccccc2)cs1 ?
Ab BasE inh: 0.5; LANA-nucl inh: 0.078

Results for N#Cc1ccc(C2NC(=O)c3ccccc3N2)cc1 (stereo not given) ?
Ab BasE inh: -0.2; LANA-nucl inh: 0.11

Results for CCn1c(NNS(=O)(=O)c2ccccc2F)nc2ccccc2c1=O ?
Ab BasE inh: -1.6

How did CCCCS(=O)(=O)Nc1cccc(O)c1 do in these assays?
Ab BasE inh: 1.6

Results for CCCc1cc(=O)n(CC(=O)Nc2ccccc2)c(-n2nc(C)cc2C)n1 ?
Ab BasE inh: 4.3; LANA-nucl inh: -0.085

How did CN1CCN(S(=O)(=O)c2ccc(SCC(=O)NC3C4CC5CC(C4)CC3C5)nc2)CC1 (stereo not given) do in these assays?
Ab BasE inh: -0.7

How did CCN(C(=O)c1cc2ccccc2o1)c1nc2c(C)cccc2s1 do in these assays?
Ab BasE inh: 0.2

What do the screens show for `c1csc(CN2CCCCCC2)c1`?
Ab BasE inh: -0.2; LANA-nucl inh: -0.37

Results for C1CN=C(NCC2CCCO2)C1 (stereo not given) ?
Ab BasE inh: -2.7

What do the screens show for `COC(=O)c1ccc(COC(=O)c2cccc(S(=O)(=O)NCc3ccccc3)c2)o1`?
Ab BasE inh: 3.1

What do the screens show for `COc1ccccc1NC(=O)Cc1noc(CSc2nc3sc(C)c(C)c3c(=O)n2C(C)C)n1`?
Ab BasE inh: -7.3

Results for CCCCn1c(N)c(N(Cc2ccco2)C(=O)Cc2coc3cc(OC)ccc23)c(=O)[nH]c1=O ?
Ab BasE inh: -0.4

What do the screens show for `COc1ccc(Nc2nc3ccccc3c(=O)s2)cc1`?
Ab BasE inh: -0.2

How did CNC(=S)N/N=C1\CCOc2ccc3ccccc3c21 do in these assays?
Ab BasE inh: 5.3; LANA-nucl inh: -0.49

What do the screens show for `Cc1cccc(C)c1N1CCN(Cc2ccc(Cl)nc2)CC1`?
LANA-nucl inh: 0.17

What do the screens show for `CCN1CC2=C(OC(N)=C(C#N)C2c2ccc(OC)cc2)/C(=C\c2ccc(OC)cc2)C1` (stereo not given)?
Ab BasE inh: -3.2; LANA-nucl inh: -0.52

Results for C=CCNC(=S)N1CCc2cc(OC)c(OC)cc2C1 ?
Ab BasE inh: 0.3; LANA-nucl inh: -0.18

Results for CCOC(=O)c1c(-c2ccccc2)c[nH]c1N ?
LANA-nucl inh: -1.1

Results for COc1cccc(NC(=O)c2ccc(COc3ccc(Cl)cc3)o2)c1 ?
Ab BasE inh: -2.3; LANA-nucl inh: 1.4

How did COc1ccc2cc3cc(C(=O)N(C)c4cc(C)ccc4C)oc3nc2c1 do in these assays?
Ab BasE inh: 0.2; LANA-nucl inh: -1.1

How did O=C(CN1C(=O)COc2ccccc21)N(CC1CCCO1)c1nc2ccccc2s1 (stereo not given) do in these assays?
Ab BasE inh: 3.7

How did CCCCNC(=O)CC1Sc2ccccc2NC1=O (stereo not given) do in these assays?
Ab BasE inh: -0.5; LANA-nucl inh: -0.42

How did O=C(O)c1ccc(N2N=C(C(F)(F)F)/C(=C/c3ccc(OC(=O)c4cccs4)cc3)C2=O)cc1 do in these assays?
Ab BasE inh: -1.0

Results for Cc1noc(/C=C/c2cccs2)c1S(=O)(=O)N1CCCC(C(=O)Nc2nccs2)C1 (stereo not given) ?
Ab BasE inh: 0.1; LANA-nucl inh: -1.2

How did Cc1ccc(N/C(N)=N/c2nc(CSc3nnc(N)s3)cc(=O)[nH]2)cc1 do in these assays?
Ab BasE inh: 0.6; LANA-nucl inh: -0.013

What do the screens show for `Cc1cc(C(=O)O/N=C(\N)c2cc(C)on2)no1`?
Ab BasE inh: 2.5; LANA-nucl inh: -1

Results for COC(=O)c1ccc(-c2ccco2)n1CC(=O)N1CCN(c2cccc(OC)c2)CC1 ?
Ab BasE inh: -0.1; LANA-nucl inh: 0.11

Results for CC(C)(C)c1nc(NCC2CCCO2)c2nnn(Cc3ccccc3Cl)c2n1 (stereo not given) ?
Ab BasE inh: -2.9; LANA-nucl inh: 2.1

What do the screens show for `O=C1NC2=C(C(=O)CCC2)C(c2ccc(Cl)cc2)N1` (stereo not given)?
Ab BasE inh: -0.8

Results for Nn1c(SCC(=O)N2CCCC2)nnc1-c1ccco1 ?
Ab BasE inh: 0.3

What do the screens show for `CCN(/C=C/c1nnnn1-c1ccc(Br)cc1)CC`?
LANA-nucl inh: 2.7

What do the screens show for `CCc1nc2c(cnn2-c2ccccc2)c(=O)n1-c1ccc(C)cc1`?
Ab BasE inh: 1.7; LANA-nucl inh: -1.3

How did O=C1CN(C(=O)Cn2ncc(Cl)c(Cl)c2=O)c2ccccc2N1 do in these assays?
Ab BasE inh: 0.7

Results for CN1CCc2c(n(CC(O)CNCc3ccccc3)c3ccccc23)C1=O (stereo not given) ?
Ab BasE inh: -2.5

How did c1ccc2sc(SCc3cn4ccsc4n3)nc2c1 do in these assays?
Ab BasE inh: -4.4; LANA-nucl inh: 2.3

Results for COc1cc(SC)ccc1C(=O)N(C)Cc1nc2ccccc2c(=O)[nH]1 ?
Ab BasE inh: 0.9

How did CC1Cc2cc(S(N)(=O)=O)ccc2N1Cc1cc2c(cc1Br)OCCO2 (stereo not given) do in these assays?
Ab BasE inh: 2.1

What do the screens show for `COc1ccc2c(c1)N(C)/C(=C1/SC(=O)N(c3ccccc3)C1=O)S2`?
Ab BasE inh: 0.9; LANA-nucl inh: 0.073

How did O=c1[nH]cnc2c(-c3ccc(Cl)cc3)nsc12 do in these assays?
Ab BasE inh: 0.3; LANA-nucl inh: -0.35

How did CNS(=O)(=O)c1ccc(F)c(C(=O)OCC(=O)c2c[nH]c3ccccc23)c1 do in these assays?
Ab BasE inh: -3.8

How did O=C(COC(=O)c1ccc2[nH]c3c(c2c1)CCCC3)c1ccc2c(c1)OCO2 do in these assays?
Ab BasE inh: 2.1

What do the screens show for `O=C(NCC1COc2ccccc2O1)c1ccc2c(=O)n3c(nc2c1)CCCCC3` (stereo not given)?
Ab BasE inh: 1.0

What do the screens show for `O=C1CC2(CCCC2)C(=O)N1Cc1coc(-c2cccs2)n1`?
Ab BasE inh: -2.2

Results for Cc1csc2nc(CSc3ccccc3)cc(=O)n12 ?
Ab BasE inh: 1.8; LANA-nucl inh: -0.14

Results for CCN(CC)C(=O)CC#N ?
Ab BasE inh: 0.6

How did CSc1ccc(C2C3=C(CCCC3=O)NC3=C2C(=O)CCC3)cc1 do in these assays?
Ab BasE inh: 2.0; LANA-nucl inh: 0.063

Results for Clc1ccc(C=NC23CN4CN(CN(C4)C2)C3)cc1 ?
Ab BasE inh: 3.6; LANA-nucl inh: -0.043

What do the screens show for `O=C(Nc1ccc(S(=O)(=O)N2CCCCCC2)cc1)c1ccncc1`?
Ab BasE inh: 1.4; LANA-nucl inh: -1.4
